# Bfl-1 A1 inh – caspase 3/7 activation in MEF A1-2A-BIM cells, primary screen, A1 inhibitor project, cell-based, luminescence, HTS; Caspase-Glo 3/7 luminescence, 3 h; percent of clofoctol response, vehicle zero; caspase activation, % (test concentration not listed); 330,000 tested, 0.066% active; AID 2462, 2010;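 active means over half of replicate activation scores above 10%, or exactly half above 10 with the replicate mean above 10; inconclusive means replicate mean below 10 yet half the replicates above 10; inactive means over half of replicates below 10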;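 further: wells of about 30 µL received 50 nL stock; many hits fall short of the cut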
# rRNA inh HTS – reduced GFP signal of wild-type E. coli, primary screen, bacterial rRNA inhibitor project, GFP/RFP fluorescence, OD600, single point | E. coli WT GFP vs humanized-ribosome RFP mutants, 24 h; stronger effect = lower value; DMSO median 0, no signal -100 | GFP signal change (wild-type ribosome), % (test concentration not listed) | 350,000 tested, 1.6% active | AID 720706, 2013;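 active means significant combined selectivity score with lowered wild-type GFP, culture density cut under 30%, mutant RFP and density less affected; inactive means any of these conditions unmet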; further: one replicate is shown; some compounds called inactive have numbers as strong as hits
# FGF22 binding – binders of human FGF22 protein, primary screen, FGF22 synaptogenesis inhibitor project, biophysical, thermal shift, single point; Fibroblast growth factor 22 (Homo sapiens), Q9HCT0; calls only at 9.99 µM; recombinant FGF22 thermal shift, SYPRO orange fluorescence; percent of sucrose octasulfate shift, DMSO zero; 340,000 tested, 1.5% active;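 active means melting point raised past a set limit in the mean and every replicate; inconclusive means no clear call; three in four hits are not shown here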
# Target sequence (Q9HCT0 whole entry, looked up): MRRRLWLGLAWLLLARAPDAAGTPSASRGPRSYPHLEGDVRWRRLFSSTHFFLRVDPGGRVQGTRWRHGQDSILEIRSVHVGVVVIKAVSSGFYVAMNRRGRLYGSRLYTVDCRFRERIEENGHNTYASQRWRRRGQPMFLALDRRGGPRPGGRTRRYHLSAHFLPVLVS
# UCH37 inh – inhibitors of human UCH37 deubiquitinase, primary screen, biochemical, Ub-AMC cleavage, fluorescence | Ubiquitin carboxyl-terminal hydrolase isozyme L5 (Homo sapiens), Q9Y5K5 | inhibition, % (concentration not given with the values) | 330,000 tested, 0.33% active | purified proteasome/UCH37;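 active means mean of two replicates above 20%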;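 further: 0% = compound-free wells with enzyme and 100% = wells lacking proteasome; stock transfer was 100 nL into about 20 µL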
# Target sequence (Q9Y5K5 whole entry, looked up): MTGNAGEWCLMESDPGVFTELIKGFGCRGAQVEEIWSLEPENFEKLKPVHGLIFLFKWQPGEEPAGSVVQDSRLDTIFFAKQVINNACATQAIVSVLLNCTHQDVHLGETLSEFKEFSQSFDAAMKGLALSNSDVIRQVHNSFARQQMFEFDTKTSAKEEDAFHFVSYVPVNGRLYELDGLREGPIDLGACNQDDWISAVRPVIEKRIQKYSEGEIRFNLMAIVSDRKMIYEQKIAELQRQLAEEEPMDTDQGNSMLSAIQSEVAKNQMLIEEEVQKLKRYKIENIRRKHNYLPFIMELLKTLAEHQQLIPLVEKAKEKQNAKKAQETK
#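 Reagent: Ub-AMC substrate; assay system: Proteasome-associated human UCH37 deubiquitinase; controls: no-proteasome and no-compound wells; read-out: % inhibition of Ub-AMC cleavage fluorescence; timing: 30 min preincubation with enzyme, 25 min cleavage at room temperature; signal: AMC fluorescence from Ub-AMC cleavage, excitation 355 nm, emission 460 nm; buffer or medium: Tris-HCl pH 7.4 plus ovalbumin, ATP-MgCl2, DTT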
# AF4-AF9 inh – inhibitors of AF4 peptide binding to AF9, primary screen, biochemical, AlphaScreen, biotin-AF4 peptide, FLAG-AF9, single point; Protein AF-9 (Homo sapiens), P42568; inhibition, % at 10 µM; 350,000 tested, 0.47% active; AID 651704, 2012;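 active means every replicate reaching a set inhibition limit, whatever the replicate mean, cut at about 25% in these data; inconclusive means mean inhibition reaches that limit but some replicates miss it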;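 further: 0% = plate neutral control median and 100% = total signal loss; the record names both 10 and 1 µM as test concentration; the first replicate is given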
# Target sequence (P42568 whole entry, looked up): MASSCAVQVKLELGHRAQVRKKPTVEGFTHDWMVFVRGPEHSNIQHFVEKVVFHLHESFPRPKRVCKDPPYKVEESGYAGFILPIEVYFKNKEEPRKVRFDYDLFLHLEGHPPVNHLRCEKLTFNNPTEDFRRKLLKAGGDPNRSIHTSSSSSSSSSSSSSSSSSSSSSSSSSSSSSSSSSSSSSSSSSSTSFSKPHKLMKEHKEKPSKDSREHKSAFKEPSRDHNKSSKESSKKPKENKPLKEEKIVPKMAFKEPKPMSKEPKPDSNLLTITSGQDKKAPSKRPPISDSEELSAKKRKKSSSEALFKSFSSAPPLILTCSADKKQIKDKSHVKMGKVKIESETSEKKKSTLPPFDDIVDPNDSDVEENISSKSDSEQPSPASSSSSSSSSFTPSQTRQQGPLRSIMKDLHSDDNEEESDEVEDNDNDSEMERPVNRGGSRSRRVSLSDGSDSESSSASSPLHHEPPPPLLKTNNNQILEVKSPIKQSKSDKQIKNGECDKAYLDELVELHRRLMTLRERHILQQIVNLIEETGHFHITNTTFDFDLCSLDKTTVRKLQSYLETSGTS
# T cruzi inh – inhibitors of intracellular T. cruzi growth, primary screen, luminescence, NIH3T3 host cells. AID 1885, 2009. inhibition, % (concentration not given with the values). T. cruzi beta-gal in NIH3T3, 90 h. 300,000 tested, 1.4% active;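 active means mean inhibition across valid replicates above about 55%, limit read from the data; inconclusive means mean below that limit but half or more replicates reach it; inactive means mean below it, under half of replicates reach it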;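 further: signal also drops with host cell toxicity which is not excluded here; 0% = plate median of DMSO wells and 100% = zero luminescence signal; higher percent means less beta-gal luminescence so fewer parasites; stock transfer was 50 nL into about 50 µL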
# Beta apoptosis – inhibitors of cytokine-induced beta cell apoptosis, primary screen, luminescence; INS-1E cytokine-induced death, ATP luminescence, 48 h; percent of positive-control rescue, neutral wells zero; protection from apoptosis, % (test concentration not listed); 300,000 tested, 0.8% active;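 active means all replicates at 75% or more, or half of them and the mean; inconclusive means half reach 75% but not the mean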;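 further: 0% = cytokine-treated negative control wells and 100% = positive control rescue; higher means more ATP so stronger rescue from cytokine killing; wells of about 40 µL received 100 nL stock; the first replicate is given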
# Ecoli growth – E. coli growth inhibition, primary screen, OD600; OD600 absorbance (no concentration beside the values); Escherichia coli growth, 23 h; stronger effect = lower value; 330,000 tested, 0.21% active;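 active means OD600 absorbance below the run mean of sample wells minus 3.6 SD, in any replicate, cut at about 0.56 in these data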;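 further: stock transfer was 300 nL into about 60 µL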
# rRNA inh HTS OD600 – second read-out of rRNA inh HTS, no call of its own (marks repeat the call); OD600 change, %; measured here: OD600 growth;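 optical density of the mix in the first replicate; 0 = DMSO median and -100 = no signal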
# rRNA inh HTS RFP – also measured in rRNA inh HTS; calls as there; RFP signal change, %; measured here: RFP humanized mutant strains;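 first replicate; 0 = DMSO median and -100 = no signal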
# * hit, by the source's call; i = inactive; ? = inconclusive; nt = not tested or not shown. These rows are one share of the data; count on the stated rates, not on these rows.
SMILES,Bfl-1 A1 inh,rRNA inh HTS,rRNA inh HTS OD600,rRNA inh HTS RFP,FGF22 binding,UCH37 inh,AF4-AF9 inh,T cruzi inh,Beta apoptosis,Ecoli growth
O=C(Nc1nc(-c2ccc3c(c2)Cc2ccccc2-3)cs1)c1ccccc1,0.6,7,5,-5.0,i,-28,0.4,-6,6,0.74
Cc1nn(C(C)C(=O)N2CCOCC2)c(C)c1[N+](=O)[O-] (centres undefined),-0.6,nt,nt,nt,nt,1.8,nt,-2,-6,0.69
COc1ccccc1/C=N/NC(=S)Nc1cccnc1,0.8,2,4,-0.6,i,nt,-2.1,8,4,nt
COc1ccc(NC(=O)CC(C)CC(=O)NCc2ccc(F)cc2)c(OC)c1 (centres undefined),0.4,7,9,-0.2,i,3.7,-1.7,4,1,0.65
c1ccc(CSc2nncn2-c2ccccn2)cc1,-0.6,4,7,0.4,nt,2.2,nt,-5,2,0.65
COc1ccc2[nH]c(=O)c(CN(C(C)=O)C3CCCCC3)cc2c1,0.2,10,3,1.0,i,-74,5.2,2,nt,0.69
CCCCC1=CC2=C(c3ccco3)C(=O)C(C)(OC(=O)c3ccc(OC)cc3)C(=O)C2=CN1c1ccc(OC)cc1 (centres undefined),0.0,nt,nt,nt,nt,3.6,nt,-4,3,0.68
CN(C)c1ccccc1-c1csc(N2CCC(C(N)=O)CC2)n1,-0.4,5,6,17,i,1.5,-5.0,nt,-4,nt
CC(=O)NC(c1ccc(C)cc1)c1cc(Cl)c2cccnc2c1O (centres undefined),3.2,16,12,1.4,i,nt,-3.1,62*,6,nt
CC(=O)N1CCc2cc(C(=O)CN3CCN(C(=O)c4ccco4)CC3)ccc21,0.2,nt,nt,nt,nt,0.0,nt,-7,-9,0.73
COCCCNc1oc(-c2ccccc2F)nc1C#N,-0.4,-7,-3,-4.6,i,-143,0.5,-8,3,0.68
Cc1cccc(NC(=O)Cn2c(=O)oc3ccccc32)n1,2.0,10,10,0.2,i,3.9,-0.1,-15,-5,0.73
Cc1cccc(N2CN(Cc3cccnc3)CNC2=S)c1,-0.3,5,9,-1.5,i,-1.5,0.8,26,2,0.68
O=C(/C=C/c1cccc(C(F)(F)F)c1)OCC(=O)N1CCN(c2ccccc2)CC1,-0.1,-1,-8,4.3,i,1.8,-0.6,nt,-4,0.66
O=C(COC(=O)/C=C/c1cccs1)Nc1cccc(S(=O)(=O)N2CCCC2)c1,0.3,-10,1,3.2,i,1.8,7.1,-1,nt,nt
CCN(Cc1ccccc1)C(=O)Cc1ccc(OC)c(S(=O)(=O)N2CCOCC2)c1,0.0,-1,0,0.0,i,0.9,2.4,-4,-6,0.72
COc1ccc(N2CCN(C(=O)CN(C)S(=O)(=O)c3cc(C)ccc3OC)CC2)cc1,0.1,-6,-8,3.3,nt,0.6,3.7,-3,nt,0.68
c1ccc(CCCN2CCN(c3ccccn3)CC2)cc1,0.7,0,3,-0.5,i,0.2,2.2,5,-1,0.7
N#C/C(=C/c1ccc(-c2ccccc2[N+](=O)[O-])o1)C(N)=O,-1.5,10,-3,2.1,nt,2.9,0.2,-17,-8,0.71
OCC[C@@H]1C[C@@H](O)[C@H](O)[C@@]2(Cc3ccccc3CO2)O1,0.3,10,-3,5.1,i,5.7,-9.6,-16,-6,nt
CCc1oc2ccccc2c1C(=O)CCN1CCCCC1,0.1,nt,nt,nt,nt,1.2,nt,-40,-20,0.62
COC(=O)c1cc(C)[nH]c2c(C)cc3nc4ccccc4c3c12,0.4,-46,-75,-7.9,i,-178,-40,25,30,0.7
CC(/C=N/Nc1nnc(C)c(=O)[nH]1)=C\c1ccccc1,-0.3,-3,-3,-0.1,i,nt,2.8,-13,14,nt
CCOc1ccc(NC(=O)CN(C)C(=O)c2sccc2-c2ccccc2)cc1OCC,nt,-10,-9,-0.6,i,1.7,1.4,nt,nt,0.67
Cc1ccc(-c2nc(C#N)c(NCCCn3ccnc3)o2)cc1,1.0,-6,-3,-2.1,i,-139,1.1,12,0,0.64
O=C(CCc1c[nH]c2ccccc12)NC(Cc1ccccc1)C(=O)O (centres undefined),-2.1,4,9,-1.3,i,0.2,-3.2,-7,-7,0.68
COc1cc2c(cc1OC)CN(c1ccc([N+](=O)[O-])cc1C#N)CC2,-0.2,-16,-6,9.5,i,5.3,7.6,6,-12,0.71
CC(C)(Oc1ccc(Br)cc1Cl)C(=O)Nc1ccon1,-0.4,-12,-11,-7.8,i,5.9,-12,0,-4,0.72
Oc1ccc2ccccc2c1C=Nc1ccc(N2CCOCC2)cc1,1.5,nt,nt,nt,nt,5.9,nt,-4,-3,0.71
Cc1ccc(C2CC(c3cccs3)=NN2C(=O)CSc2nc(=O)n3cc(C)ccc3n2)cc1 (centres undefined),0.1,-12,-6,5.0,i,-1.6,2.5,22,12,0.72

# Arranged by the number under rRNA inh HTS (ascending): some entries from above.
molecule	Bfl-1 A1 inh	rRNA inh HTS	rRNA inh HTS OD600	rRNA inh HTS RFP	UCH37 inh	AF4-AF9 inh
CC(C)(Oc1ccc(Br)cc1Cl)C(=O)Nc1ccon1	-0.4	-12	-11	-7.8	5.9	-12
c1ccc(CSc2nncn2-c2ccccn2)cc1	-0.6	4	7	0.4	2.2	nt
COc1ccc(NC(=O)CC(C)CC(=O)NCc2ccc(F)cc2)c(OC)c1 (centres undefined)	0.4	7	9	-0.2	3.7	-1.7
N#C/C(=C/c1ccc(-c2ccccc2[N+](=O)[O-])o1)C(N)=O	-1.5	10	-3	2.1	2.9	0.2

# (cont.)
SMILES,Bfl-1 A1 inh,rRNA inh HTS,rRNA inh HTS OD600,rRNA inh HTS RFP,FGF22 binding,UCH37 inh,AF4-AF9 inh,T cruzi inh,Beta apoptosis,Ecoli growth
O=C(COC(=O)C1CCN(/C=C/C(=O)C(F)(F)F)CC1)Nc1ccccc1,-0.6,-6,-4,5.2,i,8.7,-13,-1,-2,0.69
O=C(NCc1ccccc1)c1cnsn1,0.1,10,12,-7.9,i,5.1,12,7,-3,0.75
COc1ccc(-c2cc(=O)[nH]c(N3CCN(Cc4ccccc4)CC3)n2)cc1,0.2,23,15,4.7,i,-9.5,-14,21,-6,0.63
c1ccc(Nc2nc(N3CCNCC3)nc(N3CCOCC3)n2)cc1,0.2,nt,nt,nt,nt,3.0,nt,36,-8,0.75
O=c1[nH]c2cc([N+](=O)[O-])c([N+](=O)[O-])cc2[nH]c1=O,1.2,6,11,-2.8,i,10,2.1,12,-7,0.73
N#C/C(=C(/O)c1ccc(Cl)c([N+](=O)[O-])c1)c1nc2ccccc2[nH]1,-0.7,2,0,-1.6,i,3.1,6.2,7,48,0.68
Cc1ccc(S(=O)(=O)n2cnc3cc([N+](=O)[O-])ccc32)c(C)c1,?,11,10,-10,i,0.9,0.8,-10,-3,0.65
CC(=O)c1cccc(S(=O)(=O)N(C)C2CCN(C)CC2)c1,1.1,12,13,-4.3,nt,-0.8,1.3,2,-9,0.67
COc1ccc(-n2ccn(CC(=O)Nc3ccccc3OC)c(=O)c2=O)cc1,-1.1,1,4,0.3,i,2.9,-4.4,-10,-5,0.65
CC1CC(C)CN(C(=O)CNC(=O)Cn2ccc3ccccc3c2=O)C1 (centres undefined),0.5,12,11,2.3,i,2.1,0.3,-1,-6,0.67
CCOC(=O)Cn1cc(C=O)c2ccccc21,0.2,nt,nt,nt,nt,2.4,nt,-23,7,0.68
CN1CCN(c2nc3c(c(=O)n(C)c(=O)n3C)n2Cc2ccccc2)CC1,0.8,3,5,-0.7,i,3.3,-4.4,0,-6,0.65
Cc1cc(N)nc(C)c1C#N,0.8,4,5,-0.7,nt,0.1,-0.2,-19,-4,0.68
CCC(Sc1nnc(-c2ccc(C)c(Cl)c2)n1CC)C(=O)Nc1nccs1 (centres undefined),0.0,nt,nt,nt,nt,2.4,nt,nt,-1,0.66
CCN1C(=O)C2(C(C(=O)c3cc4ccccc4o3)=C(O)C(=O)N2CCCN2CCOCC2)c2ccccc21 (centres undefined),0.3,15,0,-0.6,i,11,-2.3,-3,nt,0.72
O=C(Nc1ccc2snnc2c1)N1CCCCC1,-0.2,1,-3,-2.2,i,2.3,1.4,-9,6,0.69
CCNC(=S)Nc1cc(C(=O)N2CCCC2)ccc1N1CCCC1,0.7,7,9,-0.3,nt,1.3,0.2,7,1,0.72
C[C@@H]1COC(=O)[C@H](NC(=O)OCC2c3ccccc3-c3ccccc32)C/C=C\C[C@@H](CC(=O)N[C@@H](CO)Cc2ccccc2)C(=O)N1,0.3,8,13,-5.7,i,-0.9,3.2,nt,29,nt
COc1ccc(Cl)cc1NC(=O)CCc1ccccc1,1.4,nt,nt,nt,nt,-1.8,nt,-6,-2,0.68
O=C(CCCc1ccccc1)NCCN1CCOCC1,1.4,nt,nt,nt,nt,2.4,nt,-10,0,0.64
Cn1nc(CC(=O)NCc2ccc(F)cc2)c2ccccc2c1=O,-0.5,4,6,1.3,i,4.4,-8.0,-18,0,0.69
Cc1ccc(NC(=O)C2CCC(CNC(=O)[C@@H]3Cc4ccccc4CN3)CC2)cc1 (some centres undefined),0.0,6,-4,1.8,i,0.3,-0.4,-21,2,0.7
Cc1cc(C)nc(NS(=O)(=O)c2ccc(NC(=O)c3ccc4c(c3)OCO4)cc2)n1,0.3,nt,nt,nt,nt,1.9,nt,-8,-3,0.7
O=C(COc1ccc(Br)cc1Cl)N1CCN(c2ncccn2)CC1,0.4,-3,-9,-3.3,i,-2.5,2.2,nt,-5,0.66
C=CCn1c(SCC(=O)c2cccs2)nc2sc(CC)cc2c1=O,-0.1,nt,nt,nt,nt,2.6,nt,22,18,0.75
CC(=O)c1ccc(NC(=O)c2cccc(N3C(=O)c4ccccc4C3=O)c2)cc1,-0.4,nt,nt,nt,nt,5.5,nt,-4,2,0.73
CCOC(=O)c1cccc(NC(=O)CN2C(=O)C3C4C=CC(C4)C3C2=O)c1 (centres undefined),-0.2,nt,nt,nt,nt,1.8,nt,3,-9,0.66

# Random excerpt: two entries already listed.
SMILES,Bfl-1 A1 inh,rRNA inh HTS,rRNA inh HTS OD600,rRNA inh HTS RFP,FGF22 binding,UCH37 inh,AF4-AF9 inh,T cruzi inh,Beta apoptosis,Ecoli growth
COc1ccc(Cl)cc1NC(=O)CCc1ccccc1,1.4,nt,nt,nt,nt,-1.8,nt,-6,-2,0.68
C[C@@H]1COC(=O)[C@H](NC(=O)OCC2c3ccccc3-c3ccccc32)C/C=C\C[C@@H](CC(=O)N[C@@H](CO)Cc2ccccc2)C(=O)N1,0.3,8,13,-5.7,i,-0.9,3.2,nt,29,nt
